Screening data (PubChem)
Mtb hypoxia rep – PubChem AID 1159583; 300,000 compounds, 0.1% hits; M. tuberculosis hypoxia-regulated fluorescent reporter, fluorescence; fluorescence inhibition, % (no concentration beside the values);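 active = 35 to 45% if threefold the growth effect, above 45% if 1.5-fold the growth effect; inactive = the rest, general growth blockers included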;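 note: wells of about 50 µL received 100 nL stock; 0% = vehicle wells and 100% = reference inhibitor wells; whole bacteria with a GFP reporter of the hypoxia response; strong numbers were not always called active; many hits fall short of the cut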
Bead autofluor – compound fluorescence in toxin protease inhibitor counterscreen; compound autofluorescence counterscreen, microsphere flow cytometry; stronger effect = higher value; fluorescence intensity (test concentration not listed); 360,000 compounds, 3.1% hits;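 active = at least 3 SD above the mean of all compounds, about 16000 in these data; inconclusive = too few beads counted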;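 note: 100 nL of 1 mM stock went into each well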
Sa RN4220 lethal – growth inhibition of S. aureus RN4220, primary screen, OD600. 16 h. inhibition, % (concentration not given with the values). 330,000 compounds, 0.33% hits;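 active = z-score of -3 or lower and OD600 up to 0.18 on both plates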;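 note: plate controls were untreated cells for no effect and reference antibiotic for full effect; stock transfer was 100 nL into about 80 µL; one replicate is shown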
BJeLR lethal – MLPCN primary cell-based screen for lethality selective to Ras in HRASV12 cells; inhibition, % (test concentration not listed); 300,000 compounds, 0.17% hits; BJeLR (HRASV12) viability, CellTiter-Glo ATP luminescence, 48 h; reference of the scale not given here;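 active = replicate mean above 50%; inconclusive = above 50% but judged a plate artefact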;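 note: 50 nL library stock added to about 25 µL; numbers are from one replicate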
Sa ugtP lethal – growth inhibition of ugtP-null S. aureus, primary screen, RN4220 ugtP deletion, OD600; 16 h; some inactives read as strong as hits; growth inhibition, % (no concentration beside the values); 330,000 compounds, 0.54% hits; AID 1259309, 2017;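 active = z-score under -3 and OD600 up to 0.15 on both plates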;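 note: plate controls were untreated wells for no effect and antibiotic for full effect; wells of about 80 µL received 100 nL stock; the first replicate is given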
PrP UTR inh – inhibition of PrP 5' UTR reporter expression. cell-based PrP 5' UTR mRNA reporter, plate reader. inhibition, % (no concentration beside the values). 340,000 compounds, 0.35% hits;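 active = every replicate at 50% or more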;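 note: 0 = median of the neutral control wells; tested in H4 reporter cells; numbers are from one replicate; inactives centre near -14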
Mtb hypoxia rep growth – further read-out of Mtb hypoxia rep, marked with its call; growth inhibition, %; measured here: M. tuberculosis growth (absorbance);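 0% = vehicle and 100% = reference antibiotic; read after six days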
An asterisk follows results filed as active; ? = inconclusive; . = not tested or not shown. Outcome played no part in choosing rows (roughly 4% active in at least one column).

no.	SMILES	Mtb hypoxia rep	Mtb hypoxia rep growth	Bead autofluor	Sa RN4220 lethal
1	Cn1cc(Br)c(C(=O)NNC(=O)Nc2ccccc2C(F)(F)F)n1	-3	7	3326	3.1
2	O=C(Nc1ncnc2c1C(c1ccccc1)c1c(ccc3ccccc13)O2)c1ccccc1 (centres undefined)	19	8	3741	-14
3	COc1ccc(-c2nnc(N3CCOCC3)c3ccccc23)cc1	6	7	3411	4.2
4	CC(=O)Nc1ccc(-c2csc(NC(=O)C3=COCCO3)n2)cc1	3	3	.	0.0
5	CCC(C(=O)NCc1ccc(F)cc1)n1nc(C)n2c(cc3occc32)c1=O (centres undefined)	8	13	5547	4.2
6	CCN(Cc1cc(=O)n2ccsc2n1)Cc1nc2cc(OC)c(OC)cc2c(=O)[nH]1	-5	13	4254	-0.5
7	CN(NC1OC(=O)c2ccccc21)c1ccc(C(F)(F)F)cc1[N+](=O)[O-] (centres undefined)	-8	9	4315	-0.8
8	Cn1c(=O)c2cn3c(c2n(C)c1=O)C(c1ccccc1)CC(c1ccccc1)=N3 (centres undefined)	.	.	6122	-0.2
9	O=[N+]([O-])c1ccc(N2CCN(C(=S)NC3CCCCC3)CC2)cc1	.	.	5969	1.2
10	COC(=O)N1C(=O)[C@](c2ccccc2)(C(C)C)N1C(=O)OC	13	8	4250	-11
11	O=C(NCc1ccco1)/C(=C\c1cccc([N+](=O)[O-])c1)NC(=O)c1ccco1	10	10	5060	3.7
12	Cc1ccc(S(=O)(=O)Oc2ccccc2/C=N/N=C(N)N)cc1	.	.	2241	.
13	CCOC(=O)C(NCCc1ccccc1)(NC(C)=O)C(F)(F)F (centres undefined)	1	12	2139	11
14	O=C(NCCc1ccc(F)cc1)Nc1ccc([N+](=O)[O-])cc1	4	9	5353	-2.9
15	O=C(O)CCCC(=O)OCCCCc1cccs1	5	13	19404*	5.7

no.	BJeLR lethal	Sa ugtP lethal	PrP UTR inh
1	-1	4	-22
2	.	-4	-8
3	-4	-6	-1
4	-3	-8	-48
5	0	11	-21
6	1	-10	-11
7	-1	-18	.
8	-1	-7	-20
9	-2	-5	-2
10	-9	-2	-10
11	-5	7	-1
12	10	.	15
13	-1	1	-6
14	.	-21	-17
15	1	-2	-18

(more compounds)
no.	SMILES	Mtb hypoxia rep	Mtb hypoxia rep growth	Bead autofluor	Sa RN4220 lethal
16	CS(=O)(=O)N(Cc1ccco1)Cc1ccccc1Cl	1	10	20334*	-0.4
17	O=C(Nc1nc2ccccc2n1CCN1CCCCC1)c1ccc(Cl)cc1	.	.	.	-2.0
18	CCCOc1ccc(N2C(=O)CC(N3CCN(c4nc5ccccc5s4)CC3)C2=O)cc1 (centres undefined)	.	.	4860	-2.1
19	C=CC(n1cncn1)C(O)(c1ccccc1)c1ccccc1 (centres undefined)	19	6	4090	8.1
20	CC(C)(C)c1ccc(OCC(O)CN2CCN(C(=O)c3ccccc3)CC2)cc1 (centres undefined)	14	9	4223	4.6
21	CCOC(=O)N1CCN(C(=O)CSc2nnc(CNC(=O)c3c(F)cccc3Cl)o2)CC1	.	.	4054	2.0
22	Cc1ccc(NC(=S)NCc2ccccc2)cc1S(=O)(=O)N1CCCCC1	17	10	4190	-0.7
23	Cn1c(CCNC(=O)c2ccco2)nc2cc([N+](=O)[O-])ccc21	9	-3	6023	0.3
24	COC(=O)CSc1nnc(-c2ccncc2)n1N	-1	2	19048*	1.7
25	Cc1noc(C)c1COC(=O)CCCNC(=O)c1ccc(Cl)cc1	3	6	4259	7.3
26	Cc1ccc(SCCOCCN2CCOCC2)cc1	0	16	3975	0.6
27	CCCOP(=O)(c1ccc(N(C)C)cc1)C(O)c1ccccc1OC (centres undefined)	5	9	5084	1.3
28	Cn1c(=O)c2c(nc(N3CCN(c4ccccn4)CC3)n2Cc2ccccc2Cl)n(C)c1=O	4	5	21245*	5.0
29	O=C(C(=S)N1CCOCC1)c1c[nH]c2ccccc12	2	4	4355	-1.1
30	CCOc1cccc(-c2c(C(=O)N/N=C/c3cccnc3)nnn2-c2nonc2N)c1	.	.	4315	.

no.	BJeLR lethal	Sa ugtP lethal	PrP UTR inh
16	0	3	-31
17	2	5	.
18	4	-2	-14
19	8	-1	-20
20	21	7	-19
21	1	-1	-8
22	7	0	-32
23	-10	7	-15
24	-1	0	-19
25	2	12	-19
26	6	6	-20
27	1	-6	-23
28	-2	1	-9
29	-5	0	-5
30	-1	.	-29

A second format for part of the listing above.
nr | compound | Mtb hypoxia rep | Mtb hypoxia rep growth | Bead autofluor | Sa RN4220 lethal | BJeLR lethal | Sa ugtP lethal | PrP UTR inh
26 | Cc1ccc(SCCOCCN2CCOCC2)cc1 | 0 | 16 | 3975 | 0.6 | 6 | 6 | -20
27 | CCCOP(=O)(c1ccc(N(C)C)cc1)C(O)c1ccccc1OC (centres undefined) | 5 | 9 | 5084 | 1.3 | 1 | -6 | -23
28 | Cn1c(=O)c2c(nc(N3CCN(c4ccccn4)CC3)n2Cc2ccccc2Cl)n(C)c1=O | 4 | 5 | 21245* | 5.0 | -2 | 1 | -9

Additional compounds follow:
no.	SMILES	Mtb hypoxia rep	Mtb hypoxia rep growth	Bead autofluor	Sa RN4220 lethal
31	Cc1cc(NC(=O)COc2ncnc3sc(C)c(C)c23)no1	-4	8	3469	4.3
32	O=C(CNC(=O)c1ccccc1Cl)NN=C/C=C/c1ccccc1	8	8	.	0.9
33	CC(C(=O)N1CCCCC1)n1sc2ccccc2c1=O (centres undefined)	8	3	3346	4.7
34	COc1ccc(S(=O)(=O)NCCC(=O)OCc2cc(=O)oc3cc(C)ccc23)cc1[N+](=O)[O-]	0	3	.	0.3
35	Cc1cc(=O)n2nc(-c3ccccc3)sc2c1C#N	-7	-3	2406	6.5
36	CN(C)S(=O)(=O)c1ccc(/C(O)=C2/C(=O)C(=O)N(Cc3cccnc3)C2c2ccco2)cc1 (centres undefined)	.	.	2841	.
37	Cc1ccc(NC(=O)NNC(=O)CN2C(=O)COc3ccccc32)cc1	-7	7	5944	2.2
38	C=CCn1c(SCc2cc(C(C)=O)ccc2OCC)nc2ccccc2c1=O	6	-4	11581	-1.4
39	C=C(C)C(=O)Nc1cccc(C2=NOC3(C2)CC(C(N)=O)N(C(=O)c2ccccc2C(=O)c2ccccc2)C3)c1 (centres undefined)	4	5	.	3.9
40	C=C(C)C(O)Cc1c(OC)ccc(C(=O)/C=C/c2ccc(O)cc2)c1O (centres undefined)	.	.	4286	6.0
41	CC1CC(NC(=O)c2ncn[nH]2)CC(C)(C)C1 (centres undefined)	-4	-3	10866	8.5
42	O=C(NC1CCSc2ccccc21)c1cccc(Br)c1 (centres undefined)	-3	7	5615	3.0
43	O=C(c1ccccc1)N1N=C(c2ccc(F)cc2)CC1(O)C(F)(F)F (centres undefined)	10	6	2781	3.9
44	CC(C)N(Cc1nc(-c2ccccc2)no1)C(=O)C1CCCCC1	14	4	23062*	9.2
45	CCN(CC)S(=O)(=O)c1ccc(N2CCCC2)c(NC(=O)c2nn(C)c(=O)c3ccccc23)c1	4	12	?	9.6

no.	BJeLR lethal	Sa ugtP lethal	PrP UTR inh
31	0	1	-12
32	.	9	.
33	1	50	-28
34	.	3	0
35	2	-3	-26
36	-6	.	-14
37	-5	1	-26
38	23	1	50
39	.	2	.
40	.	-8	-8
41	9	18	-44
42	-6	-4	-15
43	-3	-6	-19
44	10	7	-13
45	.	6	.

The listing continues:
no.	SMILES	Mtb hypoxia rep	Mtb hypoxia rep growth	Bead autofluor	Sa RN4220 lethal
46	CCOCCCNC(=O)CN1C(=O)CSc2ccccc21	7	5	4178	6.4
47	Cc1cccc(N2CCN(Cc3cn(C)nc3-c3ccccc3F)CC2)n1	12	12	2149	4.9
48	O=C(O)c1cccc(COc2ccc3c(c2)CCC3)c1	-7	8	4742	11
49	CO/N=C(/CNC(=O)c1cccc(Cl)c1)c1ccc(Cl)cc1	.	.	?	.
50	COCCN(CCOc1cc(C)cc(C)c1)Cc1ccc(Cl)cc1	8	7	3729	0.8
51	COc1ccc(NC(=O)c2cc3c(=O)n(C)c4ccccc4c3n2C)cc1Cl	-1	1	4003	9.8
52	CC1(C)Cc2c(cnn2-c2cccc(F)c2)C(NC(=O)CSc2ccccn2)C1 (centres undefined)	-2	6	5778	-2.3
53	Cc1ccc(OCC(=O)NC2CCS(=O)(=O)C2)c(C)c1 (centres undefined)	2	14	6135	2.9
54	CCC1(CC)C(=O)NC(=O)NC1=Nc1cccc(OC)c1	.	.	4728	3.5
55	COc1ccc2cc(C(=O)N3CCN(c4ccccc4OC)CC3)[nH]c2c1	-1	-5	3172	2.6
56	CCn1ncc(C2=NOC(C(=O)NCC(C)C)C2)c1C (centres undefined)	7	3	4388	2.8
57	COc1ccc(CN(CC(=O)NCc2ccccc2)C(=O)CCC(=O)Nc2nccs2)cc1	-10	-13	4106	1.7
58	COc1ccc(C2C(C#N)=C(N)Oc3cc(C)n(Cc4ccco4)c(=O)c32)cc1 (centres undefined)	3	0	3358	-5.8
59	COC(=O)CSc1nnc(COc2ccc([N+](=O)[O-])cc2)n1C	3	-3	5136	5.7
60	O=C(CN(C(=O)CNS(=O)(=O)c1ccc(F)cc1)c1ccccc1)NCc1ccco1	12	8	3572	1.3

no.	BJeLR lethal	Sa ugtP lethal	PrP UTR inh
46	3	11	-17
47	29	0	-28
48	3	-2	82*
49	0	.	-7
50	1	25	-24
51	6	-10	-26
52	11	-8	-16
53	-2	3	-10
54	1	0	-27
55	-4	0	-4
56	-3	1	-32
57	4	10	-5
58	4	51	-3
59	12	15	-24
60	-3	9	-18

Overlap with the part before: 4 entries, then new ones.
no.	SMILES	Mtb hypoxia rep	Mtb hypoxia rep growth	Bead autofluor	Sa RN4220 lethal
57	COc1ccc(CN(CC(=O)NCc2ccccc2)C(=O)CCC(=O)Nc2nccs2)cc1	-10	-13	4106	1.7
58	COc1ccc(C2C(C#N)=C(N)Oc3cc(C)n(Cc4ccco4)c(=O)c32)cc1 (centres undefined)	3	0	3358	-5.8
59	COC(=O)CSc1nnc(COc2ccc([N+](=O)[O-])cc2)n1C	3	-3	5136	5.7
60	O=C(CN(C(=O)CNS(=O)(=O)c1ccc(F)cc1)c1ccccc1)NCc1ccco1	12	8	3572	1.3
61	CCCN(CCC)c1nc(C)cc(C(C#N)c2nc3ccccc3o2)n1 (centres undefined)	1	9	.	1.3
62	COc1ccccc1N1CCN(/N=C/c2cccc(O)c2)CC1	.	.	2786	.
63	CC(=O)Nc1sc(N/N=C\c2ccc(O)cc2)nc1-c1cccs1	.	.	3333	.
64	CC(C)(C)SCCNC(=O)CN1C(=O)c2ccccc2S1(=O)=O	.	.	6109	4.0
65	Cc1ccc(NC(=O)CSc2ccc3c(c2)OCCO3)nc1	0	-5	.	2.8
66	CCNC(=S)N/N=C/c1cc(Br)cc(Br)c1OC	.	.	10931	.
67	Cc1cc(NS(=O)(=O)c2ccc(NC(=O)COc3cc(C)c(Cl)c(C)c3)cc2)no1	3	4	5326	12
68	Cc1ccccc1-n1c(CNc2ccccc2)nc2ccccc2c1=O	-3	-6	6611	1.7

no.	BJeLR lethal	Sa ugtP lethal	PrP UTR inh
57	4	10	-5
58	4	51	-3
59	12	15	-24
60	-3	9	-18
61	4	-2	.
62	4	.	-59
63	9	.	-41
64	-5	-7	-17
65	-1	11	-1
66	-2	.	-20
67	.	-17	-9
68	-4	1	.

A second format for part of the listing above.
(65) Cc1ccc(NC(=O)CSc2ccc3c(c2)OCCO3)nc1
- Mtb hypoxia rep = 0
- Mtb hypoxia rep growth = -5
- Bead autofluor = .
- Sa RN4220 lethal = 2.8
- BJeLR lethal = -1
- Sa ugtP lethal = 11
- PrP UTR inh = -1

(66) CCNC(=S)N/N=C/c1cc(Br)cc(Br)c1OC
- Mtb hypoxia rep = .
- Mtb hypoxia rep growth = .
- Bead autofluor = 10931
- Sa RN4220 lethal = .
- BJeLR lethal = -2
- Sa ugtP lethal = .
- PrP UTR inh = -20

Looked up above.
no. 63 – Bead autofluor = 3333
no. 61 – Sa ugtP lethal = -2
no. 65 – Mtb hypoxia rep growth = -5
